# Cruzain inh noDet = qHTS Assay for Promiscuous and Specific Inhibitors of Cruzain (without detergent); Potency, µM, for inactives: max response, negative = inhibition, actives largely listed as inhibitors; AID 1476, 2009; Cruzipain (Trypanosoma cruzi), P25779; purified cruzain, Z-FR-AMC fluorescence, no detergent; 2.3% of 200,000 active;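 also: plate controls were enzyme without inhibitor for no effect and buffer without enzyme for full effect; nearly all actives have a fitted effect of over 40% in size; top concentration of the series not given in the record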
# Target sequence (P25779 123-467 limits assumed): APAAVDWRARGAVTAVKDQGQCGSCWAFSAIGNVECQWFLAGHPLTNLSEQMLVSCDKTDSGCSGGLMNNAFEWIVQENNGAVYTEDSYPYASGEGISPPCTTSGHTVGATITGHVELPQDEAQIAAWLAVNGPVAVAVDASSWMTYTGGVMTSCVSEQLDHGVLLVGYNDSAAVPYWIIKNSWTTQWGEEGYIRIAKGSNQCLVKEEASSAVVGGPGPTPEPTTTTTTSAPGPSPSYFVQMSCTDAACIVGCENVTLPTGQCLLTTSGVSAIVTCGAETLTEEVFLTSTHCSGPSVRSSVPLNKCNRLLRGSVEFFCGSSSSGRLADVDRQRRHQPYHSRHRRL
#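 Detergent-free condition (0.00005% Triton X-100) in acetate buffer pH 5.5 with DTT. 1.5 nM enzyme and compound were pre-mixed 15 min, then 2 uM Z-FR-AMC substrate added; reaction progress from fluorescence change between first and third reads (60 s).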
# SARS PLpro yeast = qHTS of Yeast-based Assay for SARS-CoV PLP; 0.19% of 330,000 active; S. cerevisiae expressing SARS-CoV PLpro, growth rescue; control for the full effect not named in the record; AID 485353, 2010; Potency, µM (titrated, usually from 32.9 µM), for inactives: at the highest dose activity, positive = growth rescue; active means well fitted rising curve with a large enough effect; inconclusive means small, poorly fitted or top-dose-only effect; inactive means no such curve, though single readings can be large or run the other way; also: 0% is about no effect; nearly all actives have a fitted effect of over 55% in size; growth read by luminescence after 48 h
# Lassa entry inh = qHTS for Inhibitors of binding or entry into cells for Lassa Virus | Lassa virus pseudotype entry inhibition, cell reporter; control for the full effect not named in the record | Potency, µM (titrated, usually from 37.9 µM), inactives show at the top dose activity change, negative = inhibition, most hits filed as inhibitors | 1.2% of 300,000 active | AID 540256, 2011; active means well fitted inhibition curve with a large enough effect; inconclusive means small, poorly fitted or top-dose-only effect, or effect the other way; inactive means flat fitted curve, though single readings scatter; tested in HEK293 cells; also: % is scaled to controls: 0 for no effect and ±100 for the full control effect; nearly all actives have a fitted effect of over 50% in size; luciferase read-out
# RE007 growth inh = qHTS Assay for Inhibitors of the HIV-1 protein Vpr | 0.21% of 360,000 active | S. pombe RE007 Vpr strain, BacTiter-Glo ATP luminescence, 24 h; control for the full effect not named in the record | Potency, µM (titrated, usually from 92.2 µM), without a hit: top-dose activity change, negative = less growth | AID 651644, 2012; active = well fitted falling curve with a large enough effect; inconclusive = small, poorly fitted or top-dose-only effect; inactive = no such curve, though single readings can be large or run the other way;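 also: % is scaled to controls: 0 for no effect and ±100 for the full control effect; nearly all actives have a fitted effect of over 50% in size; the assay follows cell death caused by Vpr and the record does not say whether a fall means rescue or toxicity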
#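 Fission yeast strain RE007, carrying one chromosomally integrated HIV-1 vpr copy, was seeded at OD 0.01 in PMG+AL medium with 23 nL pinned compound. After 24 h at 30 °C and 99% humidity, viability was read by BacTiter-Glo luminescence.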
# MARV entry inh = qHTS for inhibitors of binding or entry into cells for Marburg Virus | Potency, µM (series often up to 37.8 µM), for inactives: top-dose activity change, negative = inhibition, usual class: inhibitors | Marburg virus pseudotyped entry inhibition, cell reporter; control for the full effect not named in the record; about a third of the inactives were read at about 46 µM | 1.8% of 300,000 active; active = well fitted inhibition curve with a large enough effect; inconclusive = small, poorly fitted or top-dose-only effect, or effect the other way; inactive = flat fitted curve, though single readings scatter; tested in HEK293 cells; about a fifth of its hits are not listed in these tables; also: % is scaled to controls: 0 for no effect and ±100 for the full control effect; luciferase read-out
# StopGo reporter = High Throughput Screening for Foot and Mouth Disease Virus Antivirals | human cells with a luciferase reporter of 2A StopGo recoding; control for the full effect not named in the record | Potency, µM (doses to about 57.9 µM), for the others: top-dose signal change, negative = less light | 1.2% of 410,000 active; active = well fitted falling curve with a large enough effect; inconclusive = small, poorly fitted or top-dose-only effect; inactive = no such curve, though single readings can be large or run the other way; tested in HEK293T cells; also: % is scaled to controls: 0 for no effect and ±100 for the full control effect; nearly all actives have a fitted effect of over 45% in size; luciferase light after 4 h
# Cruzain inh Det = qHTS Assay for Promiscuous and Specific Inhibitors of Cruzain (with detergent); purified cruzain, Z-FR-AMC fluorescence, 0.01% Triton; AID 1478, 2009; 0.43% of 200,000 active; Cruzipain (Trypanosoma cruzi), P25779; Potency, µM, for the others: max response, negative = inhibition, most hits filed as inhibitors;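 also: plate controls were neutral wells for no effect and buffer without enzyme for full effect; nearly all actives have a fitted effect of over 40% in size; top concentration of the series not given in the record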
#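 Enzyme 1.5 nM, Z-FR-AMC 2 uM, NaOAc 100 mM pH 5.5, DTT 5 mM, Triton X-100 0.01%; 15 min RT compound preincubation; kinetic ex360/em450, 60 s delta.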
# NS1 inh = qHTS Assay for Inhibitors of Influenza NS1 Protein Function. 0.4% of 270,000 active. Potency, µM (doses to about 46.1 µM), for the others: at the highest dose activity, positive = more growth. AID 2326, 2010. S. cerevisiae slowed by influenza A NS1, growth recovery by OD600; active means well fitted rising curve with a large enough effect; inconclusive means small, poorly fitted or top-dose-only effect; inactive means no such curve, though single readings can be large or run the other way; also: nearly all actives have a fitted effect of over 50% in size
#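 OD600 was taken as the measure of yeast growth restored by compound in an NS1-expressing S. cerevisiae strain. Cells had been washed out of glucose medium and diluted 1:100 into galactose -URA medium, pH 6.0.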
# Numbers without * were called inactive; ? = inconclusive; / = not tested or not shown; [ ] = another dose, or the depositor's remark. Unless noted, calls follow the shape of the dose curve; as a rule, active = well fitted curve in the direction sought with a large enough effect; inconclusive = small, poorly fitted or top-dose-only effect, or another doubt; inactive = no such curve, though single readings can be large; an effect the other way counts as inactive or inconclusive. Potency is read from the fitted curve at half-maximal effect.
No.	SMILES	Cruzain inh noDet	SARS PLpro yeast	Lassa entry inh	RE007 growth inh	MARV entry inh	StopGo reporter	Cruzain inh Det	NS1 inh
1	CC(=O)N(C)C1=C(N2CCOCC2)C(=O)c2ccccc2C1=O	-1%	1%	0.58µM*	?	1.5µM*	2.5µM*	3.7%	8%
2	CC(C)CC1NC(=O)N(Cc2nc3ccccc3s2)C1=O (stereo not given)	/	-1%	13%	-18%	1%[46.1 µM]	2%	/	-1%
3	O=C(CN1c2ccccc2Sc2ccccc21)N/N=C/c1ccc(Cl)cc1	/	-2%	?	-6%	?	-10%	/	7%
4	COc1ccc(/C(C)=N/OCC(=O)N=Nc2c(O)[nH]c3ccc(Br)cc23)cc1	?	-4%	-2%	-3%	?	40µM*	0.4%	11%
5	COc1cc2[nH]c(-c3cccc(F)c3)cc(=O)c2cc1OC	3%	-16%	-10%	1%	?	-1%	1.6%	-21%
6	CCN(CC)c1cc(C)c2cc(NC(=O)/C=C/c3ccc(C)cc3)ccc2n1	2%	/	3%[46.1 µM]	/	?	0%	-4.2%	/
7	O=C(Nc1cccc2ncccc12)c1cc(Br)ccc1Cl	/	-5%	-1%	-5%	2%	?	/	-7%
8	Cc1ccc(-c2ccc(/C=C3\SC(N4CCOCC4)=NC3=O)o2)cc1	/	-8%	?	-18%	?	-14%	/	/
9	COc1ccc(C(=O)C2CCCN(Cc3ccc4c(c3)OCCO4)C2)cc1F (stereo not given)	/	3%	-5%	-1%	-14%[46.1 µM]	2%	/	7%
10	CCP(=O)(c1ccccc1)C(C)(C)O (stereo not given)	-5%	4%	5%	13%	?	-1%	-1.6%	3%
11	O=C(Nc1ccc(Br)cc1)c1cccc(N2C(=O)C3C4C=CC(C4)C3C2=O)c1 (stereo not given)	/	24%	-13%	-27%	-7%	?	/	13%
12	Cc1cc(-c2ccc(C)c(S(=O)(=O)NCc3ccc(Cl)cc3)c2)on1	-4%	/	-23%[46.1 µM]	/	/	4%	-6.5%	/
13	COc1ccc(/C=C(\NC(=O)c2ccccc2)C(=O)NC2CCCCC2)cc1	-7%	/	-2%[46.1 µM]	/	/	35%[activator]	-2.9%	/
14	CN1CCN(c2ccccc2NC(=O)c2ccc(-c3ccc(Cl)c(Cl)c3)o2)CC1	/	-3%	?	-7%	?	-3%	/	12%
15	CC(C)c1ccc2oc(=O)cc(CN3CCN(Cc4ccccc4)CC3)c2c1	/	10%	/	2%	/	-11%	/	2%
16	CCOC(=O)C1CCN(C(=O)c2cccc(N3C(=O)NC4CC3(C)Oc3ccc(C)cc34)c2)CC1 (stereo not given)	/	0%	-17%[46.1 µM]	-9%	1%[46.1 µM]	8%	/	-6%
17	CCCc1cc(=O)[nH]c2nnc(SCC(=O)Nc3nccs3)n12	/	-8%	2%	-12%	7%[46.1 µM]	1%	/	/
18	Cc1c(Br)ccc(NC(=O)c2ccccc2[N+](=O)[O-])c1C	/	-1%	/	14%	/	18%	/	3%
19	O=C(O)C(SC(C(=O)O)c1ccccc1)c1ccccc1 (stereo not given)	/	/	30%	8%	14%	-24%	/	/
20	O=C(Cn1cc2c(n1)CCCCC2)Nc1ccccc1Cl	/	-3%	0%	-7%	1%	9%	/	-5%
21	O=C(OCCCN=C1NS(=O)(=O)c2ccccc21)c1ccccc1F	20%	4%	5%	3%	2%	-3%	1.1%	-2%
22	O=C(NCc1ccccc1Cl)c1ccc(-n2cnc3cccnc32)cc1	-6%	/	7%[46.1 µM]	/	/	4%	-11%	/
23	Cc1cc2cccc(C)c2nc1SCC(=O)NCC1CCCO1 (stereo not given)	/	-3%	0%	-1%	-15%[46.1 µM]	6%	/	5%
24	CC1SC(c2cccc(Cl)c2)NC1=O (stereo not given)	8%	0%	-6%	1%	-7%	2%	-3.0%	-1%
25	CN(CCc1ccccn1)C(=O)CCC1CCCN(C(=O)CN2CCCCCC2)C1 (stereo not given)	/	0%	18%[46.1 µM]	-20%	2%[46.1 µM]	-4%	/	-3%

# A few values from the entries so far.
# Cruzain inh noDet, cpd 21 stands at 20%
# StopGo reporter, cpd 4 stands at 40µM*
# MARV entry inh, cpd 9 stands at -14%[46.1 µM]

# (listing goes on)
No.	SMILES	Cruzain inh noDet	SARS PLpro yeast	Lassa entry inh	RE007 growth inh	MARV entry inh	StopGo reporter	Cruzain inh Det	NS1 inh
26	Cc1nnc(SCC(=O)c2ccc([N+](=O)[O-])cc2)s1	/	0%	-6%[46.1 µM]	-7%	11%[46.1 µM]	4%	/	4%
27	Cc1ccc(S(=O)(=O)NCC2CCC(C(=O)NCc3ccccn3)CC2)cc1 (stereo not given)	/	0%	6%	3%	5%	-1%	/	/
28	CC(=O)N[C@@H](CC(=O)O)C(=O)O	-6%	6%	/	-2%	/	-25%	2.3%	/
29	Cn1c(SCc2cccc(Br)c2)nc2c1c(=O)[nH]c(=O)n2C	/	-6%	/	-1%	/	-17%	/	-4%
30	O=C(Nc1ccon1)c1ccc(Br)s1	/	0%	13%[46.1 µM]	20%	20%[46.1 µM]	22%	/	1%
31	COc1ccc(CN(CC(O)COCc2ccccc2)S(=O)(=O)c2ccccc2Br)cc1 (stereo not given)	/	-11%	?	-3%	/	-3%	/	/
32	Cc1ccc2c(c1)c1c3n2CCN(CCC(=O)O)C3CCC1 (stereo not given)	/	0%	23%	-1%	?	0%	/	23%
33	CN1CCN(NC(=O)c2ccc(F)cc2)CC1	5%	9%	0%	-6%	7%	-4%	5.5%	4%
34	Oc1ccccc1C1=Nc2ncnn2C(c2ccc(F)cc2)C1 (stereo not given)	-2%	15%	-6%	-8%	-2%	-28%	0.1%	-30%
35	Cc1ccc(C(=O)NN2CCOCC2)cc1[N+](=O)[O-]	/	-4%	/	9%	/	-26%	/	12%
36	O=c1c(-c2ccccc2)c(O)cc(-c2ccncc2)n1-c1ccc(Cl)cc1	/	-2%	14%	-2%	-3%[14.2 µM]	-18%	/	7%
37	COc1cc2c(c(OC)c1OC)C(c1ccc(O)cc1)CC(=O)O2 (stereo not given)	-3%	-1%	/	-2%	/	-3%	-3.2%	/
38	Cc1cccc2sc(NC(=O)CCNS(=O)(=O)c3cccc4nonc34)nc12	1%	-4%	-7%	-8%	11%	?	-1.6%	0%
39	COc1ccc(NC(=O)N2CCCC2C(=O)NCc2cccs2)cc1 (stereo not given)	/	-3%	4%	2%	10%[46.1 µM]	8%	/	-7%
40	CCc1ccc(NC(=O)N(CCCN2CCOCC2)Cc2cccs2)cc1	1%	19%	/	-2%	/	-6%	7.6%	2%
41	Cc1c(C(=O)Nc2cccc(Cl)c2)cn2c(nc3ccccc32)c1C#N	?	1%	-9%	6%	-14%	-4%	-3.9%	8%
42	CCCCNC(=O)CCSc1nc(-c2ccc3c(c2)OCO3)cc(C(F)(F)F)n1	13%	/	12%[46.1 µM]	/	-24%[46.1 µM]	-24%	-2.4%	/
43	O=C(NNC(=O)C1CCN(c2ncccn2)CC1)c1ccc(Cl)cc1	/	1%	-3%	-14%	-3%	-26%	/	-4%
44	COC(=O)C1(Cc2ccccc2)NC(c2ccccc2C)C2C(=O)N(c3ccc4c(c3)OCO4)C(=O)C21 (stereo not given)	-7%	13%	?	3%	-26%	-19%	-5.4%	21%
45	O=C(CSc1c2c(nc3ccccc13)CCC2)Nc1ccc(F)cc1	-8%	/	18%[46.1 µM]	/	1%[46.1 µM]	-19%	-8.1%	/
46	O=C(O)C1CN(c2ncccc2[N+](=O)[O-])C1	/	0%	2%	12%	?	-6%	/	2%
47	COc1ccc(NS(=O)(=O)c2ccc(C(=O)NCC3(N4CCOCC4)CCCCC3)cc2)cc1	/	5%	?	-21%	?	3%	/	/
48	O=C(N/C(=C/c1ccc(Cl)cc1)C(=O)N1CCCCC1)c1ccco1	/	-4%	4%	0%	21%	0%	/	-31%
49	CCCc1nnc(NC(=O)c2ccc(N3C(=O)C4C5C=CC(C5)C4C3=O)cc2)s1 (stereo not given)	2%	8%	2%	-4%	-2%	/	0.8%	11%
50	CCOC1OC(=O)C(Cl)=C1Nc1ccc(C)cc1 (stereo not given)	/	-1%	10%	-14%	4%[46.1 µM]	0%	/	/
51	CCN(CC)c1c([N+](=O)[O-])c(=O)n(CC)c2ccccc12	/	3%	/	-9%	/	-25%	/	-7%
52	Oc1cccc(NC(=S)Nc2ccccc2)c1	/	1%	/	-2%	/	17%	/	3%
53	CC(C)=C(NC(=O)c1ccccc1)C(=O)N/N=C/c1ccc(O)cc1	-3%	5%	4%	6%	?	78%[activator]	-4.0%	5%
54	O=C(COC(=O)c1ccco1)c1ccccc1	/	-3%	17%[46.1 µM]	-21%	2%[46.1 µM]	13%	/	-15%
55	CC(=O)c1ccc2c(c1)N(CCCN1CCC(CCO)CC1)c1ccccc1S2	-21%	/	/	-24%[18.4 µM]	/	-15%	-10%	/
56	CCOC(=O)C(=O)/C(C#N)=C/Nc1ccc(Cl)cc1	-18%	-1%	-4%	4%	1%	?	1.2%	-2%
57	CCOC(=O)Cc1csc(NC(=S)NC(=O)C(C)(C)C)n1	-6%	0%	?	0%	-14%	-28%	-5.9%	5%
58	COc1ccc(C(=O)Nc2ccc3c(c2)OCCO3)cc1[N+](=O)[O-]	/	-2%	23%[46.1 µM]	-9%	?	39%[activator]	/	/

# Molecules above that have a cyano group (2):
No.	SMILES	Cruzain inh noDet	SARS PLpro yeast	Lassa entry inh	RE007 growth inh	MARV entry inh	StopGo reporter	Cruzain inh Det	NS1 inh
41	Cc1c(C(=O)Nc2cccc(Cl)c2)cn2c(nc3ccccc32)c1C#N	?	1%	-9%	6%	-14%	-4%	-3.9%	8%
56	CCOC(=O)C(=O)/C(C#N)=C/Nc1ccc(Cl)cc1	-18%	-1%	-4%	4%	1%	?	1.2%	-2%

# Source: PubChem BioAssay (National Center for Advancing Translational Sciences (NCATS))

# Random draw from the library (roughly 4.7% active in at least one column).
